# Bead autofluor – compound fluorescence in toxin protease inhibitor counterscreen | compound autofluorescence counterscreen, microsphere flow cytometry; active compounds read high | fluorescence intensity (concentration not given with the values) | hit rate 3.1% among 360,000 | AID 624483;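 active means at least 3 SD above the mean of all compounds, about 16000 in these data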;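 further: 100 nL of 1 mM stock went into each well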
# Sa ugtP lethal – kills S. aureus RN4220 lacking UgtP | S. aureus RN4220 ugtP deletion, OD600 growth, 16 h; some inactives read as strong as hits | growth inhibition, % (concentration not given with the values) | hit rate 0.54% among 330,000;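 active means z-score under -3 and OD600 up to 0.15 on both plates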;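 further: plate controls were untreated wells for no effect and antibiotic for full effect; wells of about 80 µL received 100 nL stock; the first replicate is given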
# Mtb hypoxia inh – Mtb hypoxia fluorescent reporter inhibition. M. tuberculosis hypoxia-regulated fluorescent reporter, fluorescence. hit rate 0.1% among 300,000. fluorescence inhibition, % (concentration not given with the values);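 active means 35 to 45% if threefold the growth effect, above 45% if 1.5-fold the growth effect; inactive means the rest, general growth blockers included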;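 further: wells of about 50 µL received 100 nL stock; 0% = vehicle wells and 100% = reference inhibitor wells; whole bacteria with a GFP reporter of the hypoxia response; strong numbers were not always called active; many hits fall short of the cut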
# PrP UTR inh – suppresses PrP 5' UTR mRNA reporter expression. hit rate 0.35% among 340,000. cell-based PrP 5' UTR mRNA reporter, plate reader. inhibition, % (concentration not given with the values). AID 488862;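 active means every replicate at 50% or more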;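 further: 0 = median of the neutral control wells; tested in H4 reporter cells; numbers are from one replicate; inactives centre near -14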
# RN4220 kill – kills Staphylococcus aureus RN4220; S. aureus RN4220 growth, OD600, 16 h; inhibition, % (no concentration beside the values); hit rate 0.33% among 330,000;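 active means z-score of -3 or lower and OD600 up to 0.18 on both plates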;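 further: plate controls were untreated cells for no effect and reference antibiotic for full effect; stock transfer was 100 nL into about 80 µL; one replicate is shown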
# BJeLR viability – BJeLR cell viability loss | BJeLR (HRASV12) viability, CellTiter-Glo ATP luminescence, 48 h; reference of the scale not given here | inhibition, % (concentration not given with the values) | hit rate 0.17% among 300,000 | AID 1554;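 active means replicate mean above 50%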;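 further: 50 nL library stock added to about 25 µL; numbers are from one replicate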
# Mtb hypoxia inh growth – also measured in Mtb hypoxia inh; calls as there; growth inhibition, %; measured here: M. tuberculosis growth (absorbance);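 0% = vehicle and 100% = reference antibiotic; read after six days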
# * = called active by the depositor; nt = no result given.
# Start of the listing, in advance, 3 compounds:
# Each structure is followed by: Bead autofluor	Sa ugtP lethal	Mtb hypoxia inh	Mtb hypoxia inh growth	PrP UTR inh	RN4220 kill	BJeLR viability
CCOc1ccc(C=NNC(N)=S)cc1
→ nt	-6.7	nt	nt	nt	8.1	nt
CCOC(=O)Cn1nc(C)n(-c2ccc(F)cc2)c1=O
→ 3971	3.6	12.9	6.2	-2.0	2.0	-1.0
CC(=NNc1ccc([N+](=O)[O-])cn1)c1ccccc1
→ 4144	12.1	6.3	1.5	-108.3	3.2	nt

# This part in full, from the first entry:
# Each structure is followed by: Bead autofluor	Sa ugtP lethal	Mtb hypoxia inh	Mtb hypoxia inh growth	PrP UTR inh	RN4220 kill	BJeLR viability
CCOc1ccc(C=NNC(N)=S)cc1
→ nt	-6.7	nt	nt	nt	8.1	nt
CCOC(=O)Cn1nc(C)n(-c2ccc(F)cc2)c1=O
→ 3971	3.6	12.9	6.2	-2.0	2.0	-1.0
CC(=NNc1ccc([N+](=O)[O-])cn1)c1ccccc1
→ 4144	12.1	6.3	1.5	-108.3	3.2	nt
CC(C)[C@@H](CO)N(C)S(=O)(=O)c1ccccc1Br
→ 3896	6.6	8.1	-2.6	-18.4	3.9	nt
COc1ccc(CNC(=O)CN(c2ccc(C)cc2)S(=O)(=O)c2c(C)nn(C)c2C)cc1
→ 5589	7.4	6.2	2.4	-5.3	3.6	13.9
Cc1ccc(OCC(=O)N2CCN(S(=O)(=O)c3ccc4c(c3)OCCO4)CC2)c(C)c1
→ 4397	1.3	1.7	-1.2	-9.9	3.5	nt
CCN1CCC2(CC1)N=C(c1ccc(F)cc1)C(=S)N2
→ 4045	6.1	0.8	6.8	-16.7	3.4	5.8
COCCNC(=O)c1cc(S(=O)(=O)N2CCOCC2)ccc1SCc1cccc(OC)c1OC
→ 4508	-0.4	5.1	9.0	-12.9	-0.8	-16.6
O=C(CSCc1ccccc1Cl)N1CCN(c2ccccn2)CC1
→ 8945	6.9	8.6	4.8	-45.8	7.3	2.4
CCOc1nc(-c2ccc(OC)cc2)ccc1-c1noc(-c2ccncc2)n1
→ 23147*	-15.3	11.5	5.8	-4.4	14.2	nt
CCOC(=O)CC1(c2ccccc2)CCOC(C)(C)C1 (configuration not stated)
→ 7129	13.6	11.9	3.6	1.2	7.3	8.5
CC1CN(S(=O)(=O)c2ccc3c(c2)OCCO3)CCN1S(=O)(=O)c1c(F)cccc1F (configuration not stated)
→ nt	7.9	15.5	5.9	nt	9.6	nt
CCOC(=O)C(C)Oc1cccc2c(=O)n(CC(=O)Nc3ccc4c(c3)OCCO4)ccc12 (configuration not stated)
→ 5220	5.8	4.1	8.5	-6.2	-11.4	5.8
CN(c1cnn(-c2ccccc2)c(=O)c1Cl)n1cccc1
→ 6175	-1.8	-7.3	4.0	-16.7	-2.1	1.4
COc1ccc(C(CNC(=O)Cc2ccccc2)N2CCCCC2)cc1 (configuration not stated)
→ 4634	4.9	1.7	-7.5	-16.1	4.3	-3.0
O=C(NCc1ncc(C(F)(F)F)cc1Cl)Nc1ccccc1
→ 2955	4.5	13.0	8.0	6.0	6.1	-3.2
CCc1ccc(-c2ccc3nnc(SCC(=O)NCC4CCCO4)n3n2)cc1 (configuration not stated)
→ nt	2.4	-1.1	1.5	2.9	1.2	-9.2
COc1ccc(-n2nc3c(N4CCC(C(=O)NC5CCCCC5)CC4)nnc(C)c3c2C)cc1
→ 11200	9.7	3.7	9.9	-39.0	0.0	-1.1
Cc1nn(Cc2ccc(F)cc2)c(C)c1NC(=O)c1cnn2cccnc12
→ 10144	1.0	0.1	6.4	-18.9	2.1	-5.4
O=C1c2cccc3cccc(c23)N1Cc1cccc(F)c1
→ 3749	0.3	3.5	9.1	-5.4	-4.0	-6.7
CCc1ccc2[nH]c(C(=O)Nc3ccc(F)cc3Br)cc2c1
→ 3986	-3.6	14.4	6.6	-15.8	1.4	0.0
OCC1OC(Oc2cccc3ccccc23)C(O)C(O)C1O (configuration not stated)
→ 3567	2.6	-1.1	-1.1	-10.6	12.4	2.5
Cc1noc(-c2ccccc2)c1NC(=O)Nc1ccccc1
→ 3644	3.6	9.2	1.0	-5.8	0.5	-2.7
COc1ccc(C2c3[nH]c4ccccc4c3CCN2CCCn2cccn2)c(F)c1 (configuration not stated)
→ 4117	8.4	4.9	-7.9	-12.3	0.8	3.2
COc1cc(OC)c(OC)cc1/C=C1\CCC/C(=C\c2cc(OC)c(OC)cc2OC)C1=O
→ 4189	9.3	10.0	2.3	-27.8	3.5	10.5
Cc1ccc(OCC(=O)N2CCOCC2)cc1C
→ 1985	-4.7	5.4	6.6	-8.7	2.7	-2.8
Cc1ccc(/C=N/NC(=O)C2COc3ccccc3O2)s1 (configuration not stated)
→ 5218	nt	nt	nt	39.0	nt	29.8
Cc1cccc(C(=O)NCC(c2ccc(F)cc2)N2CCOCC2)c1 (configuration not stated)
→ 5953	2.7	10.3	-3.6	-12.5	3.8	3.1
O=C(CN1C(=O)c2ccccc2C1=O)Nc1ccccc1C(=O)NC1CCCCCC1
→ 3322	21.8	7.1	-30.4	6.0	28.6	-0.2
O=C(CSc1nnc(-c2ccco2)n1Cc1ccccc1)NC(=O)NCc1ccco1
→ 5358	8.6	2.1	-3.5	-17.0	0.0	5.9
COc1ccc([C@@H]2C[C@H]3CN(c4ccccc4)C(=O)[C@]34CCCN24)c(OC)c1OC
→ 13997	11.7	-1.0	7.8	2.3	4.9	2.2
COC(=O)C1C2C=CC3(CN(c4ccc(Cl)c(F)c4)C(=O)C13)O2 (configuration not stated)
→ 5922	3.5	nt	nt	-2.9	-0.4	-9.5
COc1cccc(-c2cc(C(=O)O)no2)c1
→ 8179	2.8	0.7	-4.4	-43.2	1.2	4.1
COc1ccc(C=NNC(=O)OC(C)(C)C)cc1OC
→ nt	1.8	1.7	2.9	nt	1.7	nt
Nc1nc(Nc2ccccc2F)nc(NCCO)c1[N+](=O)[O-]
→ 5796	3.5	-5.0	-6.4	nt	6.2	-9.0
O=C(Nc1nnc(C2CC2)s1)c1n[nH]c(=O)c2ccccc12
→ 4088	3.6	11.5	17.3	0.0	4.0	-3.2
CC1CCCCN1C(=O)COC(=O)c1cccc(NS(=O)(=O)c2ccccc2)c1 (configuration not stated)
→ nt	2.0	-13.5	5.4	-25.4	1.7	-4.0
CC(=O)Nc1ccc(S(=O)(=O)NCCC(=O)NC(C)c2cccs2)cc1 (configuration not stated)
→ 8545	0.7	0.2	-0.9	-9.5	0.9	nt
CC(NC=C1C(=O)OC(C)(C)OC1=O)C(=O)O (configuration not stated)
→ 2665	0.9	12.5	11.5	-19.0	3.5	-0.5
C=C1C(=O)[C@@]23[C@H](O)C[C@@H]4C(C)(C)CC[C@H](O)[C@]4(C)[C@@H]2C[C@H](O)[C@@H]1[C@H]3O
→ 3240	nt	nt	nt	-16.9	nt	-6.6
CC1(C)CC(=O)C2=C(C1)OC1OC(=O)CC21C (configuration not stated)
→ 2315	8.8	1.3	-1.0	1.3	0.3	-4.1
Cc1cc2cc(CNC(=O)c3cccs3)ccc2[nH]1
→ 1880	-9.4	2.3	15.5	-20.0	-3.8	6.3
CCOC(=O)Cn1c(=O)c2c(nc(Br)n2Cc2ccccc2Cl)n(C)c1=O
→ 3780	10.3	nt	nt	-1.8	6.6	-10.8
Cc1snc(S(=O)(=O)Cc2c(Cl)cccc2Cl)c1C#N
→ 25224*	-16.6	-0.3	12.3	-24.0	10.0	-1.3
Cc1ccc(NC(=O)COc2ccc(Br)cc2CO)cc1S(=O)(=O)N1CCOCC1
→ 3845	-5.7	9.0	11.8	-16.7	5.1	nt
COCCNC(=S)Nc1ccccc1Cc1ccccc1
→ 4661	5.3	4.4	4.6	-22.7	2.3	-2.2
Cc1cc(N/N=C/c2cccc(Cl)c2)nc(NCc2ccccc2)n1
→ 2622	nt	nt	nt	-67.4	nt	-13.9
OCC1(CCc2ccccc2)CCN(Cc2ccc(OC(F)F)cc2)CC1
→ 2818	-6.6	-4.9	3.6	-2.6	-8.4	3.9
O=c1[nH]c2ccccc2c(O)c1-c1ccccc1[N+](=O)[O-]
→ 3350	2.8	-1.2	6.4	-20.8	6.0	-9.3
COC(=O)CCCC(=O)N1CCCC(C(=O)c2ccccc2SC)C1 (configuration not stated)
→ 4105	5.8	-3.4	7.0	-15.0	-1.0	7.4
O=C(c1ccc(-n2cccn2)cc1)N1CCN(c2ncccc2C(F)(F)F)CC1
→ 5633	6.3	-7.3	2.9	3.7	0.9	-3.5
CC(=O)Nc1ccc(NC(=O)c2c(C)noc2C)cc1
→ 6213	12.4	15.5	10.7	-4.5	4.7	3.0
NC(=O)c1c(NC(=O)c2ccncc2)sc2c1CCCCCC2
→ 4151	-15.9	11.9	6.0	-47.3	5.4	0.1
O=C(O)[C@@H]1[C@@H]2C[C@@H]2CN1c1ncccc1[N+](=O)[O-]
→ 4331	0.4	-7.3	14.8	-12.0	-1.9	-4.6
Cc1c(C(=O)Nc2c(F)cc(F)cc2Br)sc2ncn(CC(=O)N3CCCC3)c(=O)c12
→ 4416	8.7	4.4	-1.3	-3.3	1.3	-7.5
c1cncc(CNCCN2CCNCC2)c1
→ 2920	13.2	10.7	2.9	-7.0	7.6	nt
COc1cccc(C=NCC(C)N=Cc2cccc(OC)c2O)c1O (configuration not stated)
→ 2212	2.1	7.7	2.0	-13.8	5.2	-21.4
CCCc1nc(SCC(=O)Nc2ccccc2OC)c2c(=O)n(C)c(=O)n(C)c2n1
→ 6152	5.8	7.1	7.5	-11.7	-3.7	0.8
Cc1cc(C(=O)C[N+]23CCN(CC2)CC3)c(C)n1-c1ccc(Br)cc1
→ 4506	7.2	19.2	2.1	-5.3	3.6	4.4
COc1ccc(OC)c(N(/C(N)=N/c2nc(C)cc(C)n2)S(=O)(=O)c2ccc(NC(C)=O)cc2)c1
→ 2606	6.0	9.9	-4.2	-17.3	5.9	6.3

# Additional entries follow.
# Each structure is followed by: Bead autofluor	Sa ugtP lethal	Mtb hypoxia inh	Mtb hypoxia inh growth	PrP UTR inh	RN4220 kill	BJeLR viability
CC(SCc1ccccc1)C(=O)NCc1ccccn1 (configuration not stated)
→ 3993	11.5	-0.7	9.0	-17.0	5.8	-7.2
N#Cc1c(-c2ccccc2)cc(C2CC2)nc1SCC(=O)c1cccs1
→ 2291	15.9	nt	nt	-20.9	-2.2	0.1
CCN(CC(=O)NCc1cccs1)C(=O)c1ccc(S(=O)(=O)N(C)c2ccccc2)cc1
→ 3921	-1.7	7.9	-2.6	-9.9	-0.4	nt
Cc1nc2ccc(F)cc2cc1C(=O)NC(C)C
→ 10901	-2.5	6.2	15.2	-25.6	2.6	-1.6
COc1ccc(-c2nn(-c3ccccc3)cc2CNC[C@H]2O[C@@H](n3cnc4c(N)ncnc43)[C@H](O)[C@@H]2O)cc1
→ 3369	-1.2	-10.6	-20.6	-31.5	4.0	nt
OCCN(Cc1ccccc1)Cc1ccccc1F
→ 11295	-6.7	-4.3	-0.9	-7.3	-0.4	-8.8
O=C(O)c1cn(-c2ccccc2)nc1-c1ccncc1
→ 4743	5.4	nt	nt	-3.6	0.0	28.2
C(=N\NC1=Nc2cccc3cccc1c23)/c1ccccc1
→ 2655	nt	nt	nt	-197.4	nt	2.2
Cn1c(NC(=O)c2ccc(F)cc2)c(-c2cccs2)c(=O)c2ccccc21
→ 5260	8.9	-8.1	-7.4	-7.5	3.6	-5.7
CC1CCN(S(=O)(=O)c2ccccc2)CC1
→ 4296	-3.7	6.8	2.0	-15.2	1.4	3.2
O=C(CSc1nnnn1-c1ccc2c(c1)OCCO2)OC1CCCCC1
→ 2438	6.5	nt	nt	-20.5	4.7	nt
Cc1cc(OCC(=O)N2CCCC2)ccc1Cl
→ 3196	4.7	nt	nt	-34.9	2.0	-11.4
O=[N+]([O-])c1ccc(Cl)c(/C=N/n2c(-c3ccncc3)n[nH]c2=S)c1
→ 4200	nt	nt	nt	-4.4	nt	-4.7
COc1ccc(Oc2nc3c(C)cccn3c(=O)c2/C=C(\C#N)C(N)=O)cc1
→ 5432	-1.5	10.3	7.5	-5.3	3.3	-0.2
COc1cccc(C(=O)Nc2ccc(N3CCN(C(=O)c4cccs4)CC3)cc2)c1
→ 5729	4.6	2.7	-0.9	-23.7	-0.8	31.8

# Screening results deposited in PubChem by several laboratories.
